Polio RdRp inh = poliovirus RNA polymerase inhibition; P03300; poliovirus polymerase elongation, fluorescence polarization; hits give low values; % elongation, % (compound at 16.7 µg/mL); 0.66% of 150,000 active; in the data active = % elongation below about 90%; also: some results filed as inactive read as strong as hits
Target sequence (P03300 1749-2209 limits assumed): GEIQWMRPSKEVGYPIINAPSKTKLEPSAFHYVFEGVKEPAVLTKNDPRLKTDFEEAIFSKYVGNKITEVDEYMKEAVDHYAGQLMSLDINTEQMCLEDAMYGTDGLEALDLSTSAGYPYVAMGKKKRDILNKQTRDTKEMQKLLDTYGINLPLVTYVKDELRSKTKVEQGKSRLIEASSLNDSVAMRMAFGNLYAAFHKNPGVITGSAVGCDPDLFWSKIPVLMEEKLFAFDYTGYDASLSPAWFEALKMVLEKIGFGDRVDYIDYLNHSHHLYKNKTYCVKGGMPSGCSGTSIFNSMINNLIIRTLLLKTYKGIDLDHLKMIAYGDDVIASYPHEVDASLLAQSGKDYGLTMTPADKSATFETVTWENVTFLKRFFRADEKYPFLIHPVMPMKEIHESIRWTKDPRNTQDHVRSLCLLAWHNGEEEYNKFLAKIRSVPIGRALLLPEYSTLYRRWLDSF
Polio RdRp inh intensity = also measured in Polio RdRp inh; calls as there; % elongation; measured here: total intensity read-out; formula for this scale not given here;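 total fluorescence in place of polarization; lower means less elongation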
Active calls of the source: *.

SMILES	Polio RdRp inh	Polio RdRp inh intensity
Cc1ccc(N(CC(=O)N2CCN(c3cc(C)ccc3C)CC2)S(=O)(=O)c2c(C)nn(C)c2C)cc1	102	103
Cc1cc(C)cc(NC(=O)c2cccc(N3CCCS3(=O)=O)c2)c1	109	116
CCOC(=O)c1cc2c(=O)n3ccccc3nc2n(Cc2ccco2)c1=NC(=O)c1ccc(OC)cc1	102	106
Cc1ccc(NC(=O)Cn2c(=O)n(Cc3ccccc3)c(=O)c3sc4ccccc4c32)cc1	101	103
COc1ccc(NC(=O)c2ccc(CNS(=O)(=O)c3ccc4c(c3)C(C)(C)C(=O)N4C)cc2)cc1	121	114
CCc1ccc(C(=O)c2cn(CC(=O)Nc3cc(OC)ccc3OC)c3ccc(Cl)cc3c2=O)cc1	110	112
CCc1ccc2oc(C(=O)Nc3nonc3CC)c(C)c2c1	110	115
CC(C)c1ccc(NC(=O)c2ccc(F)c(S(=O)(=O)N3CCc4ccccc43)c2)cc1	114	114
CCOc1ccc(NC(=O)CCc2c(C)nc3c4c(C)cc(C)nc4nn3c2C)cc1	106	103
CCOc1ccc(NC(=O)[C@@H](c2ccccc2)N2Cc3ccccc3C2=O)cc1	111	110
CCOc1ccc(C(=O)CSc2nc3cc(C(=O)NC4CCCC4)ccc3c(=O)n2CC2CCCO2)cc1 (stereo not given)	114	102
CCOc1cccc2cc(-c3nnc(Nc4ccc(F)c(Cl)c4)s3)c(=O)oc12	105	110
COC(=O)c1ccc(Nc2nc(-c3ccc(C)cc3)nc3ccccc23)cc1	105	105
CCN(C(=O)c1c(C)oc2ncn(CC(C)C)c(=O)c12)c1cccc(Cl)c1	108	107
CCOc1ccccc1NC(=O)CCCc1nc(-c2ccccc2Cl)no1	105	109
CCOc1ccc(-c2nonc2NC(=O)COc2ccc(C)c(C)c2)cc1OCC	108	103
Cc1ccc(-c2ccc(=O)n(CC(=O)NCCc3ccccc3)n2)cc1	110	114
Cn1nnnc1SCCCNCc1ccccc1OCc1ccc(Cl)cc1	108	106
CCOc1ccc(Cl)cc1CNCCCSc1nnnn1C	114	112
COc1ccc(-n2nnc(C(=O)Nc3ccccc3F)c2N)cc1	105	109
COc1ccc(Nc2cc(C(=O)NCc3ccccc3)c3ccccc3n2)cc1OC	113	114
COc1ccc2c(CNCc3cccs3)c(C(=O)O)n(Cc3ccccc3)c2c1	110	108
Cc1nc(N2CCCC2)ncc1C(=O)NCc1ccccc1Cl	110	107
COc1ccc(-c2nn(-c3ccc(C)cc3)c3c2cnc2ccc(C)cc23)cc1OC	106	108
CN(C(=O)c1ccc2c(c1)N(Cc1ccccc1F)C(=O)c1ccccc1S2)C1CCCCC1	104	99
Cc1ccc(-n2c(=O)c3ccc(C(=O)NCc4ccccc4Cl)cc3n(CC(N)=O)c2=O)cc1	104	104
CCOc1ccc(CC(=O)Nc2c(C(=O)Nc3ccc(OC)cc3OC)oc3ccccc23)cc1	108	111
N#Cc1c(-n2ncnc2-c2cccc(Br)c2)sc2c1CCCCC2	103	107
COc1ccc(NC(=O)CCNS(=O)(=O)c2ccc3c(c2)CCN3C(=O)C2CC2)cc1Cl	102	107
Cc1cccc(NC(=O)c2cc3c(C)nn(-c4ccccc4)c3s2)c1	108	110
O=C(CN1Cc2ccccc2C1=O)Nc1cc(F)ccc1F	107	106
COc1ccc(S(=O)(=O)c2cn(C)c3cc(N4CCCCC4)c(F)cc3c2=O)cc1	106	107
CC(=O)Nc1ccc(NC(=O)C(NS(=O)(=O)c2ccc(Br)s2)c2ccccc2)cc1 (stereo not given)	107	109
COc1ccc(N2CCN(C(=O)c3cccn3-c3nnc(N4CCCC4)s3)CC2)cc1	100	105
Cc1cc(C)cc(NC(=O)COCc2cc(-c3ccc4c(c3)OCO4)on2)c1	112	112
O=C(NCC(c1ccc(Cl)cc1)N1CCCCC1)c1ccccc1F (stereo not given)	111	108
CC(=O)N1CCCc2cc(S(=O)(=O)N3CCCC(C(=O)NCc4ccc(C)cc4)C3)ccc21 (stereo not given)	108	110
COc1ccc2c(c1)NC(c1ccc(F)cc1)=NC(c1ccc(F)cc1)=N2	109	105
CCOC(=O)C1CCCN(C(=O)Cn2ncc3c(C)n(Cc4ccc(Cl)cc4)c(C)c3c2=O)C1 (stereo not given)	106	107
COc1ccc(CCNC(=O)CCCCn2c(=O)c3ccccc3n(Cc3ccccc3)c2=O)cc1OC	108	112

Part of the list above, comma-delimited:
Structure,Polio RdRp inh,Polio RdRp inh intensity
COc1ccc(Nc2cc(C(=O)NCc3ccccc3)c3ccccc3n2)cc1OC,113,114
COc1ccc2c(CNCc3cccs3)c(C(=O)O)n(Cc3ccccc3)c2c1,110,108
Cc1nc(N2CCCC2)ncc1C(=O)NCc1ccccc1Cl,110,107
COc1ccc(-c2nn(-c3ccc(C)cc3)c3c2cnc2ccc(C)cc23)cc1OC,106,108
CN(C(=O)c1ccc2c(c1)N(Cc1ccccc1F)C(=O)c1ccccc1S2)C1CCCCC1,104,99
Cc1ccc(-n2c(=O)c3ccc(C(=O)NCc4ccccc4Cl)cc3n(CC(N)=O)c2=O)cc1,104,104
CCOc1ccc(CC(=O)Nc2c(C(=O)Nc3ccc(OC)cc3OC)oc3ccccc23)cc1,108,111
N#Cc1c(-n2ncnc2-c2cccc(Br)c2)sc2c1CCCCC2,103,107
COc1ccc(NC(=O)CCNS(=O)(=O)c2ccc3c(c2)CCN3C(=O)C2CC2)cc1Cl,102,107
Cc1cccc(NC(=O)c2cc3c(C)nn(-c4ccccc4)c3s2)c1,108,110
O=C(CN1Cc2ccccc2C1=O)Nc1cc(F)ccc1F,107,106
COc1ccc(S(=O)(=O)c2cn(C)c3cc(N4CCCCC4)c(F)cc3c2=O)cc1,106,107
CC(=O)Nc1ccc(NC(=O)C(NS(=O)(=O)c2ccc(Br)s2)c2ccccc2)cc1 (stereo not given),107,109
COc1ccc(N2CCN(C(=O)c3cccn3-c3nnc(N4CCCC4)s3)CC2)cc1,100,105
Cc1cc(C)cc(NC(=O)COCc2cc(-c3ccc4c(c3)OCO4)on2)c1,112,112

New compounds follow
SMILES	Polio RdRp inh	Polio RdRp inh intensity
Cc1ccc(C)c(Cn2c(=O)n(-c3ccc(Cl)cc3)c(=O)c3c(C)c(C)sc32)c1	108	111
COc1ccc(NC(=O)c2cn3c4c(ccc(Cl)c4c2=O)OC(C)C3)cc1OC (stereo not given)	99	100
Fc1ccc(NCc2nnc3n2CCCCC3)cc1Cl	107	114
O=c1oc2c3c(ccc2c2ccccc12)OCN(Cc1ccccc1Cl)C3	93	95
CCOc1ccccc1NC(=O)CSc1cc(=O)n(CC)c2ccccc12	110	107
Cc1ccc(CNC(=O)c2cc(S(=O)(=O)N3CCCCCC3)cn2C)cc1	111	113
O=S(=O)(NCCc1csc2nc(-c3ccccc3)nn12)c1ccc(Cl)s1	101	105
O=C(CCn1cccn1)NCc1ccc(Cl)cc1	110	112
CC(=O)c1ccc(C(=O)N(Cc2cccnc2)c2nc3c(Cl)cccc3s2)cc1	105	98
O=C(NCCC1=CCCCC1)c1ccc2c(c1)N(Cc1ccc(Cl)cc1)C(=O)c1ccccc1S2(=O)=O	108	110
COCC(C)NC(=O)c1cc2c(=O)n3cccc(C)c3nc2s1 (stereo not given)	98	100
CCOc1ccc(CCNC(=O)CN2N=C(c3ccccc3)CCC2=O)cc1OCC	106	107
Cc1cccc(CSc2nc3c(c(=O)[nH]2)C(c2cccc(O)c2)CC(=O)N3)c1 (stereo not given)	102	96
CCOc1ccc(CCNC(=O)c2cnc3c(-c4ccccc4)c(C)nn3c2C)cc1OCC	102	108
Fc1ccc(-c2cc(-c3ccccc3)c3c(n2)-c2ccccc2OC3)cc1	106	109
COc1cc(NC(=O)Cn2nnnc2-c2ccccc2F)cc(OC)c1OC	111	106
CCc1ccc(OCCSc2nc3ccccc3n2CC(=O)N2CCCCC2)cc1	108	109
COc1ccc(CNc2nc(-c3ccc(Cl)cc3)nn2S(=O)(=O)c2ccc(C)cc2)cc1	107	108
O=c1cc(CSc2ncn[nH]2)[nH]c2c(Cl)cccc12	109	110
CN(c1nnc(NC(=O)Nc2ccccc2C(F)(F)F)s1)C1CCCCC1	107	104
O=C(Cn1c(=O)n(-c2ccccc2)c(=O)c2sc3ccccc3c21)NC1CCCC1	106	110
O=C(NCCCN1CCN(c2ccc(F)cc2)CC1)c1cc2c(s1)-c1ccccc1OC2	106	104
CCCNC(=O)c1cnc2sc(N3CCCCCC3)nn2c1=O	112	107
COc1ccc(-c2cc(C(F)(F)F)nc(SCC(=O)N(C)Cc3ccccc3)n2)cc1OC	103	105
CC1=C(C(=O)NCc2ccccc2Cl)C2(CCCCCC2)OC1=O	107	112
CCNc1nc2c(c(=O)n(C)c(=O)n2C)n1CC(O)COc1ccccc1 (stereo not given)	107	107
Cc1ccc(C(=O)c2cn(CC(=O)Nc3ccc(C(C)C)cc3)c3nc(C)ccc3c2=O)cc1	113	129
O=C(CSc1nc(=O)n(Cc2ccco2)c2c1CCC2)NCc1ccccc1Cl	108	109
CCOc1ccccc1NC(=O)Nc1nnc(N(C)Cc2ccccc2)s1	105	113
CC(C)c1cnc2c(c1SCC(=O)NC(C)(C)C)c(=O)n(C)c(=O)n2C	113	115
O=C(CSc1nc2ccccc2n1Cc1cccc(F)c1)N1CCN(c2ccc(F)cc2)CC1	111	111
Cc1ccc(-c2nc3c4ccccc4n(CC(=O)NCc4ccc(F)cc4)c(=O)n3n2)cc1	116	108
Cn1c(=O)oc2cc(S(=O)(=O)CCC(=O)NCc3ccccc3)ccc21	105	113
COc1ccc(-c2cccc(NS(=O)(=O)c3cc(C)c(OC)c(C)c3C)c2)nn1	108	109
COc1ccc(NC(=O)Nc2nnc(N(C)C3CCCCC3)s2)c(OC)c1	107	108
CC(=O)c1cccc(NC(=O)c2cc3nc(-c4ccc(Br)cc4)cc(C(F)(F)F)n3n2)c1	110	106
Cc1ccc(C)c(NC(=O)CCCN2C(=O)COc3ccc(C)cc32)c1	109	112
Cc1cc2oc3c(c(=O)c2cc1C)C1(C(=O)N(C)c2ccccc21)N(CCO)C3=O (stereo not given)	109	106
COc1ccc(CCNC(=O)CCc2c(C)nc3c4c(C)cc(C)nc4nn3c2C)cc1OC	104	106
Cc1nc2nc(NCc3cccc(Cl)c3)[nH]n2c(=O)c1Cc1ccccc1	120	120
O=C(Nc1nc2ccccc2n1CCOc1ccccc1Cl)c1ccccc1	104	104
Cc1ccc2nc(CN3CCN(S(=O)(=O)c4ccc(F)cc4)CC3)oc2c1	103	107
COc1ccc(CNC(=O)COCc2cc(-c3ccc4c(c3)OCO4)on2)cc1	112	117
Cc1ccc(NC(=O)CN2CCN(C3CCCCC3)C(=O)C2=O)cc1	101	107
Cc1nc2nc(-c3ccc(Cl)cc3Cl)nn2c(C)c1CCC(=O)Nc1ccc(F)cc1	99	100
N#Cc1ccc(-c2cccs2)nc1SCC(=O)Nc1cccc(C(F)(F)F)c1	113	119
COc1ccc(OC)c(CCNC(=O)c2nc(-c3ccc(Cl)cc3)n3c2CCCCC3)c1	112	114
Cc1ccc(NC(=O)c2c(C)oc3nc(C)nc(N4CCCC4)c23)c(C)c1	107	114
COCCNC(=O)c1ccc2c(=O)n(CCc3ccccc3)c(SCC(=O)CC(=O)OC)nc2c1	106	101
CCOC(=O)c1cccc(NC(=O)c2cc3c(=O)n(Cc4ccccc4)ccc3nc2C)c1	112	108
O=C(NCc1ccccc1Cl)C(=O)NCC(c1cccs1)S(=O)(=O)c1ccccc1 (stereo not given)	111	106
CCCCn1cc(S(=O)(=O)c2ccc(Cl)cc2)c(=O)c2cc(F)c(N3CCCC(C)C3)cc21 (stereo not given)	100	93
CC(=O)Nc1ccc(S(=O)(=O)Nc2cccc(-c3ccc(N4CCC(C)CC4)nn3)c2)cc1	104	97
CCOc1ccc(CNC(=O)c2ccc(Sc3ccc(Cl)cc3)c(NC(C)=O)c2)cc1OC	105	106
O=C(Nc1ccc(SC(F)F)cc1)c1cc(-c2cccs2)on1	106	112
Cc1ccc(-n2c(=O)c3c(cnn3C)n(Cc3ccccc3F)c2=O)cc1	98	102
COc1ccc(N2CC(NC(=O)c3cccs3)CC2=O)cc1 (stereo not given)	105	105
Cc1cccc(C)c1Nc1c(-c2ccccc2O)nc2ncccn12	110	111
CC1CCN(S(=O)(=O)c2cccc(C(=O)N(C)C3(C)CCS(=O)(=O)C3)c2)CC1 (stereo not given)	105	109
CCCCCn1c(=O)[nH]c2cc(C(=O)NCc3ccc(Cl)cc3)ccc2c1=O	108	109

(continued)
SMILES	Polio RdRp inh	Polio RdRp inh intensity
Cc1cc2c(cc1C)NC(CC(=O)Nc1ccccc1)C(=O)N2 (stereo not given)	110	106
CCc1nn(CC(=O)NC(C)CCc2ccccc2)c(=O)c2cc3cc(F)ccc3n12 (stereo not given)	110	114
CCS(=O)(=O)N1CCc2cc(C(=O)NCCc3ccc(OC)c(OC)c3)ccc21	97	104
Cc1ccc2c(c1)C(=O)OC(C(=O)Nc1ccccc1C(=O)O)C2 (stereo not given)	100	91
Fc1ccc(CNc2cc(-c3ccccc3)nc3nncn23)cc1	114	108
COc1ccc(Br)cc1C1C(C(=O)Nc2ccc(C)cc2C)=C(C)Nc2ncnn21 (stereo not given)	105	109
COc1ccc(CNC(=O)CSCc2nc(-c3ccccc3C)oc2C)cc1	101	103
COc1ccc(CNC(=O)C2CCN(c3nc4ccccc4[nH]3)CC2)c(OC)c1	106	97
COC(=O)c1c(NC(=O)c2ccc(S(=O)(=O)N3CCCCC3C)cc2)sc2c1CCN(C(C)C)C2 (stereo not given)	109	89
CC(=O)c1ccc(NC(=O)Nc2ccc3snnc3c2)cc1	107	110
Cc1ccc2[nH]c(CSc3nnc(NC(=O)COc4ccccc4F)s3)cc(=O)c2c1	98	103
COc1cccc(N2C(=O)C(CC(=O)Nc3ccc(Cl)cc3)N(Cc3ccc4c(c3)OCO4)C2=O)c1 (stereo not given)	108	108
COc1ccc(N2CCN(CC(O)COc3ccc(C)c(C)c3)CC2)cc1 (stereo not given)	97	94
CCc1ccc(-n2c3nc(=O)[nH]c(=O)c-3cc3c(C)nn(-c4ccccc4)c32)cc1	109	109
COC(=O)c1cc2oc(C)cc2n1Cc1ccc(Cl)cc1	107	109
CCOc1ccc(N2C(=O)c3[nH]nc(-c4ccc(OC)cc4)c3C2c2cccs2)cc1 (stereo not given)	108	112

Screening results from PubChem BioAssay.

These rows are one share of the data. The share of hits here may be higher or lower than overall.
